Screening data as filed in PubChem.
Sfp inh: qHTS Assay for Inhibitors of Bacillus subtilis Sfp phosphopantetheinyl transferase (PPTase); 4'-phosphopantetheinyl transferase ffp (Bacillus subtilis), Q9F4F7; Biochemical Sfp PPTase activity, qHTS; Potency, µM, without a hit: max response, negative = inhibition, actives largely listed as inhibitors; actives 3.5% (n = 310,000); AID 1490, 2009; active means well fitted inhibition curve with a large enough effect; inconclusive means small, poorly fitted or top-dose-only effect, or another doubt; inactive means no such curve, though single readings can be large or run the other way;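 further: the enzyme is Sfp with the accession as filed and its product quenches rhodamine fluorescence; potency means the concentration at half of the fitted maximal effect; 0% = enzyme reaction without inhibitor and -100% = no enzyme wells; top concentration of the series not given in the record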
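Fluorescence-quenching assay with 15 nM Sfp, 5 uM rhodamine-CoA and 12.5 uM BHQ-2-labelled ybbR peptide in pH 7.6 Hepes/MgCl2 buffer. Enzyme was pre-incubated with compound for 15 min at room temperature. Rate was taken from the 30-min fluorescence change (525/598 nm).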
TRPV1 PAM: HTS Assay for Compounds that Act as Potentiators of the Vanilloid Receptor 1. Transient receptor potential cation channel subfamily V member 1 (Homo sapiens), Q8NER1. TRPV1-expressing cells, Fluo-8 calcium influx, capsaicin EC20 potentiation; host cell line not named in the record; control for the full effect not named in the record. potentiation, % at 8.33 µM. actives 0.02% (n = 320,000). AID 540277, 2011; active means potentiation above 80%; inconclusive means 30% to 80%; inactive means below 30%; further: 0% is about no effect
Target sequence (Q8NER1 whole entry, looked up): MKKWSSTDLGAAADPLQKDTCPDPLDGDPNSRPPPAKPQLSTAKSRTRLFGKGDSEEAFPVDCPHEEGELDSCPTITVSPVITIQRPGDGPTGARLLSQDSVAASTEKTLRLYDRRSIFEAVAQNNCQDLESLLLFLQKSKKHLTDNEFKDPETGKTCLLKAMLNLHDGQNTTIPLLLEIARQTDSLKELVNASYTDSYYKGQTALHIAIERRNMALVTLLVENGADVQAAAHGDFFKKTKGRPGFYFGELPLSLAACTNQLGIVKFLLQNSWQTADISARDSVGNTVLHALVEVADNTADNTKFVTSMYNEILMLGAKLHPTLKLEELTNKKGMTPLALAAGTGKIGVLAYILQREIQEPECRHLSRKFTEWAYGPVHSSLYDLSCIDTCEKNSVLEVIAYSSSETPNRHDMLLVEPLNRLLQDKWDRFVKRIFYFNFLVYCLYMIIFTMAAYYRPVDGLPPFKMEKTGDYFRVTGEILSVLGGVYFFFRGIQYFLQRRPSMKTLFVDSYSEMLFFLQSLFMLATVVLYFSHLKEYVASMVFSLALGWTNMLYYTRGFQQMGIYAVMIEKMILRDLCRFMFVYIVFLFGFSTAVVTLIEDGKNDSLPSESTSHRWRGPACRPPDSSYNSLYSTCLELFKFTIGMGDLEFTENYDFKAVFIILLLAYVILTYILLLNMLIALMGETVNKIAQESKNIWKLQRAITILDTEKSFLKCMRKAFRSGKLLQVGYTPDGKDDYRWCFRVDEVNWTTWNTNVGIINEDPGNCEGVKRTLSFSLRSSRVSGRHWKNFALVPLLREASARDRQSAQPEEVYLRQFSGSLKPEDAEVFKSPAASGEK
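Fluo-8 calcium influx in TRPV1-expressing cells, kinetic read (ex 480/em 520 nm). Compound added and read 3 min for agonist activity, followed by capsaicin at EC20 final and 2 min further read for enhancement.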
The depositor's hits bear a star; i = inactive; ? = inconclusive; & = joins results of further samples; ! = a repeat was not active.

canonical_smiles,TRPV1 PAM,Sfp inh
Cc1nc(NC2=NCN(C3CCCCC3C)CN2)nc2ccccc12 (stereo unspecified),-1.0,18.7%
CC1=CC2=NC(=O)/C(=C\c3ccc(-c4ccc(Cl)cc4)o3)C(=N)N2O1,-4.9,-3.1%
Cc1ncc(CO)c2c1Oc1nc(-c3ccccc3)nc(SCC(=O)N(C)c3ccccc3)c1C2,1.2,-24.5%
Cn1cnnc1SCC(=O)N1c2ccccc2-c2c(ssc2=S)C1(C)C,-4.2,-15.4%
CCOC(=O)c1cnn(-c2nc(C)nc3sc4c(c23)CCC4)c1N,-2.9,7.9%
Cc1ccc(C2C3=C(Nc4[nH]n(-c5ccccc5)c(=O)c42)c2ccccc2C3=O)cc1 (stereo unspecified),-1.7,-4.9%
Cc1ccc(S(=O)(=O)c2cc3c(=O)n4cc(C)ccc4nc3n(CC3CCCO3)c2=N)cc1 (stereo unspecified),-2.3,13.7%
CCCC(C)C(=O)OCC(=O)Nc1ccc(Br)cc1 (stereo unspecified),-11.4,15.5%
C#CCOCCOCCOCCNc1nc(N2CCN(C(=O)[C@H](CCC(=O)O)n3cc(C(N)Cc4ccc(O)cc4)nn3)CC2)nc(N2CCN(C(=O)[C@H](Cc3ccc(O)cc3)n3cc(C(N)[C@H](C)CC)nn3)CC2)n1 (stereo partly specified),-24.2,-14.8%
O=C(O)COc1ccc(-c2nccc(-c3cccs3)n2)cc1,-14.8,15.7%

(cont.)
canonical_smiles,TRPV1 PAM,Sfp inh
COc1ccc2c(c1OC)C(=O)c1ccccc1C2=O,10.8,?
COc1cc(OC)cc(C(=O)OCCNC(=O)Cn2cnc3c2c(=O)n(C)c(=O)n3C)c1,-3.3,22.7%
CCC(C)C(NC(N)=O)C(=O)NC1CCC(C)CC1 (stereo unspecified),-6.5,8.7%
CC(C)N(Cc1ccc(F)cc1)C(=O)c1cc2ccccc2oc1=O,-12.9,-1.4%
COc1ccc(N2C(=O)N(Cc3ccccc3F)c3ccccc3S2(=O)=O)cc1,-1.8,1.9%
O=c1[nH]c2cc3c(cc2cc1CN(CCc1ccccc1)Cc1nnnn1C1CCCC1)OCCO3,-7.3,?
CCOC(=O)CSc1nc2ccc(N3CCOCC3)cc2c(=O)n1Cc1ccc2c(c1)OCO2,14.7,-16.2%
O=C1CC(C(=O)Nc2ccc(Br)cc2)C2(CCCC2)O1 (stereo unspecified),13.2,-7.3%
O=C1NN(c2ccc(F)cc2)C(=O)/C1=C\c1cnn(-c2ccccc2)c1,3.6,-0.5%
CCN(CC)C(=O)CC(c1ccc(F)cc1)c1ccc(OC(C)C)cc1 (stereo unspecified),-7.8,1.8%

More results:
canonical_smiles,TRPV1 PAM,Sfp inh
CCc1ccccc1NC(=S)NN,5.0,-28.4%
COc1ccc([C@]23Cc4cc(OC)c(OC)cc4C(O2)C2=C(CCCC2=O)O3)cc1,i,-29.9%
COc1cc2ccccc2cc1C(=O)Nc1sc2c(c1C(N)=O)CCN(C(C)C)C2,-13.3,-20.5%
C#CCOCCOCCOCCNc1nc(N2CCN(C(=O)C(Cc3ccc(O)cc3)n3cc(C(N)CC(C)C)nn3)CC2)nc(N2CCN(C(=O)C(Cc3cc4ccccc4[nH]3)n3cc(C(N)Cc4ccc(O)cc4)nn3)CC2)n1 (stereo unspecified),-4.2,-12.9%
O=S(=O)(O)c1nc2ccccc2n1Cc1cccc2ccccc12,?,-2.0%
CCCN1CCC(NC23CC4CC(CC(C4)C2)C3)CC1,-6.8,4.0%
O=C1Nc2ccc(Br)cc2C1=Nc1ccc(-c2nnc3n2CCCCC3)cc1,3.6,2.4%
CCCCNc1ccc(S(N)(=O)=O)cc1[N+](=O)[O-],7.8,1.0%
CCN(CC)CCNC(=O)C(=O)NCC1OCCN1C(=O)c1ccc2c(c1)OCO2 (stereo unspecified),-0.4,11.3%
O=C(CN1C(=O)/C(=C/c2c(F)cccc2Cl)Oc2ccccc21)NCc1ccco1,-0.3,39.8µM*

3 entries already listed, sorted by the value under Sfp inh, high to low:
structure | Sfp inh
CCCC(C)C(=O)OCC(=O)Nc1ccc(Br)cc1 (stereo unspecified) | 15.5%
Cc1ccc(C2C3=C(Nc4[nH]n(-c5ccccc5)c(=O)c42)c2ccccc2C3=O)cc1 (stereo unspecified) | -4.9%
CCOC(=O)CSc1nc2ccc(N3CCOCC3)cc2c(=O)n1Cc1ccc2c(c1)OCO2 | -16.2%

Additional structures
canonical_smiles,TRPV1 PAM,Sfp inh
Oc1c(Cl)cc(CN2CCCCC2)c2cccnc12,21.1,13.5%
N/C(=N\OC(=O)COc1ccc2ccccc2c1Br)c1cccnc1,10.6,-15.2%
Cc1cccc(N2CCCn3c2nc2c3c(=O)n(CC(=O)OCc3ccccc3)c(=O)n2C)c1,-15.9,-14.5%
CCc1nnc(NC(=O)CN2C(=O)/C(=C/c3ccc(OC)c(OC)c3)SC2=S)s1,12.5,-6.5%
CC1(C(=O)CSc2ncn[nH]2)CCC(=O)O1 (stereo unspecified),16.9,56.2µM*
O=C(OCCN1C(=O)c2cccc3c(N4CCOCC4)ccc(c23)C1=O)c1cc(Cl)cc(Cl)c1,3.5,9.5%
Cc1ccc(NS(=O)(=O)c2cccc(C(=O)NN3CCOCC3)c2)cc1,-8.8,-23.3%
O=C(O)CNS(=O)(=O)c1ccc(-c2ccccc2)cc1,0.5,19.7%
Cn1nc(OC(=O)Nc2ccc(Cl)cc2)cc1C(F)(F)F,-10.5,5.4%
COc1cccc(-n2c(CN3CCN(Cc4ccccc4)CC3)nc3ccc([N+](=O)[O-])cc3c2=O)c1,0.6,-5.1%

Four entries from above, with values under each structure.
Each structure is followed by: TRPV1 PAM	Sfp inh
Cc1ccc(NS(=O)(=O)c2cccc(C(=O)NN3CCOCC3)c2)cc1
 : -8.8	-23.3%
O=C(O)CNS(=O)(=O)c1ccc(-c2ccccc2)cc1
 : 0.5	19.7%
Cn1nc(OC(=O)Nc2ccc(Cl)cc2)cc1C(F)(F)F
 : -10.5	5.4%
COc1cccc(-n2c(CN3CCN(Cc4ccccc4)CC3)nc3ccc([N+](=O)[O-])cc3c2=O)c1
 : 0.6	-5.1%

The list continues.
canonical_smiles,TRPV1 PAM,Sfp inh
Cc1ccc(O)c(C(=O)c2cnn(C(=O)COc3ccccc3C#N)c2)c1,15.0,2.4%
CCc1c(C)nc(N)n2c(SCC(=O)N3CCN(c4ccccc4F)CC3)nnc12,0.5,11.0%
O=C1C2=C(C(=O)c3ccccc31)C1O[C@](CCCCN3C(=O)c4ccccc4C3=O)(Cc3ccccc31)O2,i,12.2%
CCC(=O)N1CCc2cc(Br)cc(S(=O)(=O)Nc3c(C)n(C)n(-c4ccccc4)c3=O)c21,5.9,20.1%
COc1ccccc1NC(=O)C(=O)NNC(=O)COc1ccc2ccccc2c1,5.7,17.3%
Cc1ccc(S(=O)(=O)c2c[nH]c3cc4c(cc3c2=O)OCO4)cc1,5.5,3.6%
CCCCc1c(O)nc(SCCC(=O)O)[nH]c1=O,3.1,1.0%
O=C(NCCNC1CCN(Cc2ccccc2)CC1)c1cccs1,4.3,?
COCCn1c(-c2ccc(Cl)cc2)nc2c(c(=O)c3ccccc3n2C)c1=O,8.7,-6.3%
Cn1c(=O)[nH]c(=O)c2c1nc(N1CCCCCC1)n2CCCSc1nnnn1-c1ccccc1,-1.7,?

Next structures.
canonical_smiles,TRPV1 PAM,Sfp inh
O=P(O)(O)CP(=O)(O)O,10.7,-5.2%
O=C(CNc1c(Br)cc(Br)cc1Br)NN=C1CCCCC1,4.1,9.2%
CCN(CC)CCCN1C(=O)C(=O)/C(=C(/O)c2ccc3c(c2)CC(C)O3)C1c1ccncc1 (stereo unspecified),-2.8,6.6%
COc1ccc(-c2nnc3n2N=C(c2cccc(Br)c2)CS3)cc1OC,-8.8,1.6%
COc1cccc(C(=O)N2CCN(C3CCN(Cc4ccccc4)CC3)CC2)c1,2.4,?
CCCCCCN(C(=O)CCCCCN1C(=O)NC(c2ccc(-c3ccccc3)cc2)C(C(=O)OCc2ccccc2)=C1C)C(C(=O)NCCCC)c1ccc(O)cc1 (stereo unspecified),8.8,6.1%&8.1%
COc1cc(/C=C2/C(=N)N3C(=NC2=O)SN=C3S(=O)(=O)C(C)C)ccc1OS(=O)(=O)c1ccccc1,6.5,56.2µM*
CCOc1cccc(/C(O)=C2/C(=O)C(=O)N(CCN3CCOCC3)C2c2ccncc2)c1 (stereo unspecified),-10.9,-14.0%
CCOC(=O)Cn1c(=O)c2c(nc(Br)n2Cc2ccccc2)n(C)c1=O,-27.5,-0.9%
O=C(O)c1cc(-c2ccc(O)cc2)nc2ccccc12,-3.0,3.9%

Next section.
canonical_smiles,TRPV1 PAM,Sfp inh
COc1ccc(C(=O)n2ccc(C)n2)cc1Br,13.9,1.3%
Cc1noc(C(=O)Nc2ccc(Cl)cc2)c1Cl,15.7,20.9%
COC(=O)c1ccc(CSc2ccc3nnc(-c4cccnc4)n3n2)o1,-0.1,0.6%
COc1cccc(-c2cc(C(=O)Nc3ccc4c(c3)OCCO4)c3ccccc3n2)c1,-10.2,5.2%
O=C(Nc1ccc(F)cc1)C1=CC(=O)N2CCN=C2S1,0.7,0.562µM*
CC(=O)N1C(=O)N(C)C2C1N(C)C(=O)N2C(C)=O (stereo unspecified),-8.2,2.9%
Nc1ccc(C(=O)Oc2ccc([N+](=O)[O-])cc2)c(O)c1,17.2,5.4%
O=C(NCc1ccco1)c1ccc2nc3sc4c(c3c(=O)n2c1)CCCC4,2.1,10µM*
COC(=O)CCC(=O)OC1(C)C(=O)C2=CN(CCN3CCOCC3)C(c3ccc(OC)cc3)=CC2=C(Br)C1=O (stereo unspecified),15.2,5.1%&-13.7%
COc1cccc(-c2nnc(N(C)C(=O)c3ccno3)s2)c1,-0.9,22.8%

(continued)
canonical_smiles,TRPV1 PAM,Sfp inh
Cc1sc(NC(=O)CN(C)C2CCCCC2)nc1-c1ccc2c(c1)CCN2S(=O)(=O)c1ccccc1,6.2,-7.4%
CCOC(=O)c1c(N)c(C#N)nn1-c1ccccc1C(=O)OC,-4.4,10.8%
CCOC(=O)/C(C#N)=C1\SS/C(=C(/C#N)C(=O)OCC)S1,1.1,10µM*
COc1ccccc1-c1cc(C(=O)N2CCc3ccccc3C2)c2ccccc2n1,12.3,-7.3%
COC(=O)c1ccc(CSCc2ccc(C#N)cc2)cc1,8.4,-9.3%
Clc1ccc(Cn2c(CN3CCCC3)nc3ccccc32)cc1,-6.0,79.4µM*!
CC1CC(C)CN(C2CCN(Cc3cccnc3)CC2)C1 (stereo unspecified),2.3,?
O=C(O)c1cccc(C(=O)O)n1,-3.1,3.98µM*
CC(C)c1ccc2oc3nc(N)c(C(=O)O)cc3c(=O)c2c1,5.8,16.3%&21.1%
O=S(=O)(c1ccccc1)N1CCCc2ccccc21,?,1.4%

The list continues.
canonical_smiles,TRPV1 PAM,Sfp inh
COc1cc2c(C(=O)Nc3ccc4c(c3)OCO4)cn(CC(C)C)c(=O)c2cc1OC,-14.2,?
COC(=O)C/C=C/[C@@H](C)[C@@H](/C=N/O[C@H](C)c1cn([C@@H]2COC[C@H]2O)nn1)NS(=O)(=O)c1ccc(C)cc1,-6.5,16.6%
O=C1c2ccccc2C(=O)N1OS(=O)(=O)c1ccccc1,1.6,10µM*
O=C(CN1CCN(c2ccc(O)cc2)CC1)NC1CCCc2ccccc21 (stereo unspecified),6.6,17.8µM*
Cc1cccc(-n2c(-c3ccco3)nc3nc4ccccc4nc32)c1,-2.2,8.9%
O=C(N/N=C/c1cc([N+](=O)[O-])ccc1O)C1C2CCCCC21 (stereo unspecified),4.7,24.6%
COc1cc(/C=N/NC(N)=O)ccc1OC(=O)c1ccc(C)cc1,-4.3,17.4%
O=Nc1ccc(NOC(=O)c2ccc(Br)cc2)cc1,3.2,18.6%
Cc1nc2c(c(=O)n1Cc1ccco1)c1nc3ccccc3nc1n2Cc1ccccc1,6.5,8.91µM*
CC1=C(C)CC(C(=O)NCc2cccc(Cl)c2)C(C(=O)O)C1 (stereo unspecified),?,3.7%

(list continues)
canonical_smiles,TRPV1 PAM,Sfp inh
CCS(=O)(=O)C1=NN2C(=N)/C(=C\c3ccc(OC(=O)c4ccco4)c(Br)c3)C(=O)N=C2S1,0.7,-7.1%
O=C(Nc1nc(-c2ccccn2)cs1)c1ccc(S(=O)(=O)N2CCCCC2)cc1,6.5,14.7%
Cc1ccc(S(=O)(=O)N2CCN(c3nc(C)nc4sc(C)c(C)c34)CC2)cc1,2.9,0.2%
Clc1cccc(-c2nnc3sc(-c4ccc5c(c4)OCO5)nn23)c1,16.6,31.6µM*
Cc1c2cnn(CC(=O)Nc3c(F)c(F)cc(F)c3F)c(=O)c2c(C)n1Cc1ccc(F)cc1,-32.2,-22.8%
CCOc1ccc(NC(C)C(=O)N/N=C/c2ccc([N+](=O)[O-])cc2)cc1 (stereo unspecified),1.0,4.6%
COc1ccc(CCNC(=O)C(NS(=O)(=O)c2ccc3c(c2)CCN3C(C)=O)C(C)C)cc1OC (stereo unspecified),1.6,14.8%
COc1ccc(CNc2nc3c(c(C(F)(F)F)n2)CCCCC3)cc1,3.7,13.2%

This is a subset; count on the stated rates, not on these rows.
